Compound activity as filed in PubChem.
YopH PTP inh: YopH tyrosine phosphatase inhibitors, primary screen, biochemical, fluorescence Ex485/Em525; inhibition, %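 (about 10 µM by stock and volumes)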; 0.16% of 140,000 active; AID 898, 2007;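 active = inhibition of 50% or more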;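 also: controls were vehicle for no effect and minimum signal wells for full effect; inactives centre near -20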
RecA intein inh: Mtb RecA intein splicing inhibitors, primary screen, biochemical, fluorescence, HTS | Protein RecA (Mycobacterium tuberculosis (strain ATCC 25618 / H37Rv)), P9WHJ3 | cell-free RecA intein splicing | inhibition, %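 (about 9 µM by stock and volumes)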 | 0.75% of 290,000 active | AID 2221, 2009; in the data active = inhibition above about 30%;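 also: 0% = vehicle wells and 100% = reference inhibitor control wells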
Target sequence (P9WHJ3 whole entry, looked up): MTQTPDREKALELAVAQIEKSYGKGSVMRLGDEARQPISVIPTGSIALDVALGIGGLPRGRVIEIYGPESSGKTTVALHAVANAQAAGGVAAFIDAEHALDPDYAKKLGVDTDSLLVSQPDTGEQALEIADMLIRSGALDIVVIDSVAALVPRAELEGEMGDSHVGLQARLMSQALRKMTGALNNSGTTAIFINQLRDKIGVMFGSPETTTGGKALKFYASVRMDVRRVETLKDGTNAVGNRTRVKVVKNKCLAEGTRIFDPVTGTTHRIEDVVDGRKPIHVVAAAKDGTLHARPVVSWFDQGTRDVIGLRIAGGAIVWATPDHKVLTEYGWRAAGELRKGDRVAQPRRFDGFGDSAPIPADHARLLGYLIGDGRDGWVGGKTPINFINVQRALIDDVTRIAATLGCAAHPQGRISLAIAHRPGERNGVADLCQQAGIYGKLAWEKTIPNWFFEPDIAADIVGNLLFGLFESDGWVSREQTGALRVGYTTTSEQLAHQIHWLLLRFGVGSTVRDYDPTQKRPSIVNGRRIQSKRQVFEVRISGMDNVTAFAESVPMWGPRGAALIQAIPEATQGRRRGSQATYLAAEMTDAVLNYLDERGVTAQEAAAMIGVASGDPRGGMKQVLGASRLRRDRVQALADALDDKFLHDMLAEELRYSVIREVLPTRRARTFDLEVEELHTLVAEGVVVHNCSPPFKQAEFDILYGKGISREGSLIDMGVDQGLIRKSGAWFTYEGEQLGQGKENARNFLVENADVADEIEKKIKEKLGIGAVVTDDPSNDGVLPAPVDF
Mtb growth: M. tuberculosis H37Rv growth inhibitors, H37Rv strain (AID 1626). M. tuberculosis H37Rv growth inhibition; higher % means a stronger effect. inhibition, % at 10 µM, or IC50 in µM where a hit was titrated. 0.95% of 220,000 active;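 active = confirmed in a dose series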;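 also: bacteria incubated seven days before Alamar blue readout; 0% = bacteria only wells and 100% = bacteria with antibiotic wells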
Arbovirus anti: antivirals against arbovirus infection, primary screen, cell-based, full library, 10K replicate subset; arbovirus infection cell-based antiviral screen; inhibition, % at 10 µM; 0.37% of 200,000 active; AID 1251, 2008;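 active = inhibition from about 30%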;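 also: bluetongue infection of BSR cells; cell survival read as ATP light after 72 h; 0% = infected wells without compound and 100% = uninfected wells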
Mtb bLac sens: beta-lactam sensitization of Mtb H37Rv, H37Rv; M. tuberculosis H37Rv growth with meropenem, percent inhibition; hits of this screen are not shown here; 0.27% of 330,000 active; inhibition, % at 25 µM;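 active = about 74% or more and at least 40 points above the plate without the antibiotic, then above 30% in a dose series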;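 also: growth measured after seven days incubation then overnight dye step; 0% = bacteria only wells and 100% = bacteria with antibiotic; twin plates without the antibiotic show which effects depend on it; some results filed as inactive read as strong as hits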
Arbovirus anti repeat: further read-out of Arbovirus anti, marked with its call; inhibition, %; measured here: 10K subset replicate screen; many hits read low in the repeat;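 first of two repeat runs on a subset; 0% = infected and 100% = uninfected wells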
Active calls of the source: *; . = no result given. An excerpt (hit frequency here may not be typical).

SMILES	YopH PTP inh	RecA intein inh	Mtb growth	Arbovirus anti	Mtb bLac sens	others
C=CCC(Nc1ccccc1)c1ccc(OC)c(OC)c1 (stereo not drawn)	.	1.0	0.5%	.	-5.2
COc1ccc(N2CCN(C(=O)CCC(=O)c3cc(C)sc3C)CC2)cc1	.	1.8	4.1%	-8.6	5.1
CCCOc1ccc(C(=O)N2CCN(c3ccc(NC(=O)CC)cc3Cl)CC2)cc1	4.4	-2.8	11.6%	-18.7	34.2
O=C(O)CCSCc1ccccc1F	-47.1	.	-1.6%	2.9	-0.2
CCOc1ccc(NC(=O)CSc2cn[nH]n2)cc1	.	1.9	.	.	-5.2
COC(=O)c1ccc(OCC(=O)c2cccc(OC)c2)cc1	-27.8	1.2	8.7%	5.0	1.6
COC(=O)c1c(NC(=O)COC(=O)[C@@H](NS(=O)(=O)c2ccc(C)cc2)C(C)C)sc2c1CCC2	-14.0	4.5	4.8%	-7.4	1.0
Cc1nc2sccc2c(=O)n1N	.	-0.8	-2.2%	5.6	0.3
NC(=O)c1ccsc1NC(=O)c1ccc(S(=O)(=O)N2CCCc3ccccc32)cc1	-25.0	12.1	.	-22.7	-8.5
CN(CC(=O)NC1CCCCC1)S(=O)(=O)c1ccc(Cl)cc1	0.4	-1.3	-4.8%	1.2	-10.2
Cc1[nH]c(=O)c(C#N)c(C)c1Cc1ccc(Cl)cc1Cl	.	0.8	2.4%	-1.1	-4.3
CCO[C@H]1OC(C(=O)N2CCN(Cc3ccccc3)CC2)=C[C@@H](C)[C@@H]1CCCO	.	1.8	0.3%	-0.1	3.3
COc1ccc(NC(=S)NCc2ccco2)cc1	-12.8	0.1	.	5.6	-7.0
COc1ccc(OC)c(NP(=O)(Oc2ccccc2)Oc2ccccc2)c1	.	14.8	.	.	3.6
CC(Sc1nncs1)C(=O)NCC(=O)Nc1ccc(F)c(F)c1F (stereo not drawn)	.	0.8	4.7%	-3.3	-3.9
O=C1CCC/C(=N\NC(=O)c2ccc(COc3cccc4cccnc34)cc2)C1	-9.7	-1.4	4.9%	-14.7	-4.4
COc1ccc(C(=O)CSc2nnc(CN3CCCCC3)n2-c2ccc(F)cc2)cc1	-22.5	0.7	6.2%	1.1	-2.4
CNS(=O)(=O)c1cccc(C(=O)NCC2(N3CCOCC3)CCCCC2)c1	.	1.5	2.5%	4.2	2.7
Cc1cccc(OCC(=O)NC(Cc2ccccc2)C(=O)O)c1 (stereo not drawn)	-32.1	-1.7	1.7%	-4.6	2.1
CC(=O)N1CCC(=O)N(C(C)C)c2ccccc21	-25.3	-5.2	-4.8%	8.3	-13.9
COc1c(Cl)cnn(-c2ccc(C)cc2)c1=O	-12.3	0.6	-2.1%	-35.9	6.2
CCC(C(=O)NC1CCCC1)N(C(=O)c1snc(C(N)=O)c1N)c1ccc(OC)c(OC)c1 (stereo not drawn)	.	-1.6	.	.	-2.5
CCOC(=O)C(CC)Sc1ncnc2nc[nH]c12 (stereo not drawn)	-13.4	-1.7	1.8%	-1.0	2.4	Arbovirus anti repeat=-6.4
Cc1ccc(S(=O)(=O)Cn2nnnc2C(c2ccccn2)N2CCN(c3ccccc3)CC2)cc1 (stereo not drawn)	-2.2	2.7	-0.6%	2.8	-4.7
O=C(c1ccc2c(=O)n3c(nc2c1)CCC3)N1CCCSC1=Nc1ccccc1	.	0.8	.	.	-4.6

Reprinted at random: two entries already listed, in no set order.
SMILES	YopH PTP inh	RecA intein inh	Mtb growth	Arbovirus anti	Mtb bLac sens	others
NC(=O)c1ccsc1NC(=O)c1ccc(S(=O)(=O)N2CCCc3ccccc32)cc1	-25.0	12.1	.	-22.7	-8.5
CNS(=O)(=O)c1cccc(C(=O)NCC2(N3CCOCC3)CCCCC2)c1	.	1.5	2.5%	4.2	2.7

As a short view, five of the compounds above.
SMILES	YopH PTP inh	RecA intein inh	Mtb growth	Arbovirus anti	Mtb bLac sens	others
C=CCC(Nc1ccccc1)c1ccc(OC)c(OC)c1 (stereo not drawn)	.	1.0	0.5%	.	-5.2
COc1ccc(N2CCN(C(=O)CCC(=O)c3cc(C)sc3C)CC2)cc1	.	1.8	4.1%	-8.6	5.1
CCCOc1ccc(C(=O)N2CCN(c3ccc(NC(=O)CC)cc3Cl)CC2)cc1	4.4	-2.8	11.6%	-18.7	34.2
O=C(O)CCSCc1ccccc1F	-47.1	.	-1.6%	2.9	-0.2
CCOc1ccc(NC(=O)CSc2cn[nH]n2)cc1	.	1.9	.	.	-5.2

The listing picks up; the six compounds before the break are reprinted first.
SMILES	YopH PTP inh	RecA intein inh	Mtb growth	Arbovirus anti	Mtb bLac sens	others
CC(=O)N1CCC(=O)N(C(C)C)c2ccccc21	-25.3	-5.2	-4.8%	8.3	-13.9
COc1c(Cl)cnn(-c2ccc(C)cc2)c1=O	-12.3	0.6	-2.1%	-35.9	6.2
CCC(C(=O)NC1CCCC1)N(C(=O)c1snc(C(N)=O)c1N)c1ccc(OC)c(OC)c1 (stereo not drawn)	.	-1.6	.	.	-2.5
CCOC(=O)C(CC)Sc1ncnc2nc[nH]c12 (stereo not drawn)	-13.4	-1.7	1.8%	-1.0	2.4	Arbovirus anti repeat=-6.4
Cc1ccc(S(=O)(=O)Cn2nnnc2C(c2ccccn2)N2CCN(c3ccccc3)CC2)cc1 (stereo not drawn)	-2.2	2.7	-0.6%	2.8	-4.7
O=C(c1ccc2c(=O)n3c(nc2c1)CCC3)N1CCCSC1=Nc1ccccc1	.	0.8	.	.	-4.6
Cc1ccc(N=Cc2c(C)[nH]n(-c3nc4ccccc4[nH]3)c2=O)cc1	-17.6	3.9	6.5%	-29.0	79.6
O=C(c1ccccc1)N1CCCCCC1	-1.7	-1.9	-1.4%	-3.9	-9.9
CCOC(=O)C1CCCN(c2c(NCc3ccco3)c(=O)c2=O)C1 (stereo not drawn)	-25.4	-1.1	-7.0%	7.5	0.6
Cn1nccc1C(=O)N1CCCC(N2CCN(Cc3ccc4c(c3)OCO4)CC2)C1 (stereo not drawn)	.	-1.6	.	.	-0.3
N#C/C(=C\c1cccc(Cl)c1)c1n[nH]c(Cn2cncn2)n1	-4.5	0.1	-0.7%	2.5	26.4
Cc1ccccc1-c1nc(CS(=O)(=O)CC(=O)N(C)C2CCCCC2)c(C)o1	-15.3	7.0	2.0%	7.2	4.9
CCN1CCN(CC(O)COCc2cc(OC)c(OC)c(OC)c2)CC1 (stereo not drawn)	.	-0.2	-10.3%	-2.0	-5.8
CCN1CCN(C(=O)C2CCCN(S(=O)(=O)c3ccc(OC)c(OC)c3)C2)CC1 (stereo not drawn)	.	-1.5	.	.	-3.3
O=C(Nc1cnc2ccccn2c1=O)c1ccc(F)cc1	-24.8	-5.7	-9.1%	2.3	-2.1
COc1ccc(C2NC(=O)NC(C)=C2C(C)=O)cc1 (stereo not drawn)	-18.4	0.4	-3.2%	4.3	-3.3
CCC(=O)NCCc1nc2cc(NC(=O)c3ccc(OC)cc3)ccc2n1C	-3.3	-1.6	-13.7%	3.3	-3.9
CC(C)c1cc(C(=O)NCc2ccco2)no1	-24.4	-2.2	6.5%	-3.7	0.1
O=C(N1CCN(CCO)CC1)N1c2ccccc2CCc2ccccc21	.	1.4	-12.8%	.	1.7
CC(=O)c1ccc(N2CCN(S(=O)(=O)c3c(C)[nH]c(=O)[nH]c3=O)CC2)cc1	.	-0.8	-3.3%	9.9	-11.7
CC[C@@H](CO)C1CC2NC3CC4(c5ccccc5N(C)[C@@H]24)C(O)C31 (stereo partly drawn)	.	-3.8	-2.7%	.	-3.6
Cc1ccnc(N(C(=O)c2cccs2)C(=O)c2cccs2)c1	4.5	1.6	-3.0%	-3.8	-2.3
Fc1ccc(NC(=S)NN2CCOCC2)cc1Cl	-23.8	-1.5	-9.2%	7.6	5.5
NC(=O)Cn1cc(/C=N\NS(=O)(=O)c2ccc(F)cc2)c2ccccc21	.	-4.9	.	.	6.8
Cc1ccccc1C(=O)NCCNC(=O)c1cnccn1	.	3.1	.	.	-0.6
COc1ccccc1NC(=O)Cn1nc(-c2ccncc2)nc1SCC(=O)NC1CCCC1	.	-5.0	2.8%	-9.7	3.2
CCOC(=O)c1ccc(N2C(=O)CC(C)(CC)CC2=O)cc1	.	0.5	3.6%	.	-3.2
O=C(c1ccco1)N1CCN(CC2CC3C=CC2C3)CC1 (stereo not drawn)	3.6	.	-2.1%	19.1	1.5
O=C(O)CCSc1nnc(COc2ccc([N+](=O)[O-])cc2)n1-c1ccccc1	.	-2.3	-14.6%	3.7	4.3
CCCCNC(=O)C1CC(c2ccc(C(F)(F)F)cc2)=NO1 (stereo not drawn)	.	0.2	2.5%	.	2.5
N#Cc1ccc(C(=O)Nc2cccc(NC(=O)c3ccco3)c2)c(F)c1	.	0.0	-8.6%	0.8	-4.1

The listing continues:
SMILES	YopH PTP inh	RecA intein inh	Mtb growth	Arbovirus anti	Mtb bLac sens	others
CCS(=O)(=O)N1CCC(C(=O)Nc2cc(C)ccc2O)CC1	.	-2.5	.	.	-8.6
O=C(O)COc1ccccc1C1C2C(=O)N(c3ccc(F)cc3)C(=O)C2ON1c1ccccc1 (stereo not drawn)	-33.4	1.5	2.3%	6.6	-2.1
CCc1nc(NCC2CCCN2CC)c2nnn(Cc3ccccc3F)c2n1 (stereo not drawn)	-41.8	2.0	7.7%	-10.5	-2.7
CNC(=S)N(Cc1ccc(OC)cc1)C1CC(=O)N(c2ccc(Cl)cc2)C1=O (stereo not drawn)	-33.1	1.8	.	-27.0	-2.1
COc1ccc2c(c1OC)C(=O)N1N=C(c3ccccc3)CC21 (stereo not drawn)	-30.4	0.1	8.0%	-7.1	11.2
Oc1ccccc1Oc1ncc(Br)c(N2CCOCC2)n1	-38.6	4.9	-1.1%	22.2	-1.7
Cc1ccc(CNC(=O)c2ccc(Cn3cc(-c4ccc(C)cc4)nc3-c3ccncc3)cc2)cc1	.	-0.6	.	.	22.5
COc1ccccc1C(=O)Nc1ccc2c(c1)CC1(C(=O)N(C)C(=O)N(C)C1=O)C1CCCN21 (stereo not drawn)	.	-19.1	.	.	5.0
COc1cc(S(=O)(=O)NC2CCCCC2)c(C)cc1C	.	3.1	-9.3%	2.2	-6.3
CC(=O)c1sc(-c2cccc(Cl)c2)nc1C	.	-1.0	5.1%	-4.3	3.0
CCc1nnc(NC(=O)CSc2nnc(-c3ccccc3OC)n2-c2ccccc2)s1	-8.6	0.7	-6.2%	9.8	-3.0
Cc1cccc(OCC(=O)NN2C(=O)C3C4C=CC(O4)C3C2=O)c1 (stereo not drawn)	.	1.8	1.9%	12.1	-6.2
COc1ccc(-c2sc(Nc3ccccc3)n[n+]2-c2ccc(F)cc2)cc1Br	.	2.9	.	.	-5.5
O=C(CSCCO)Nc1cccc2ccccc12	1.2	-1.1	-1.9%	-4.8	16.9
CCN(CC)S(=O)(=O)c1cccc(C(=O)NCc2ccccc2)c1	.	-0.3	-4.9%	5.2	-13.3
NCCCNc1nc(N)c([N+](=O)[O-])c(NC2CCCCC2)n1	.	-0.8	.	.	-2.2
O=C(NCc1ccco1)c1cc(C(=O)C2CC2)c[nH]1	-8.6	-1.5	-7.5%	-3.0	-3.2
COc1ccc(NC(=O)Cn2cc(C(C)=O)c3ccccc32)cc1	.	-0.5	.	.	-10.8
CC(=O)N1CCc2cc(S(=O)(=O)C(C)CC(=O)NCc3ccc(C)o3)ccc21 (stereo not drawn)	.	4.2	.	.	-13.3
COc1cc(C)c(/C=C/C(C)=C/C=C/C(C)=C/C(=O)O)c(C)c1C	.	4.2	0.488µM*	.	97.5
O=C(Cc1ccsc1)NCc1ccccc1F	.	-0.7	.	.	5.9
CC(=O)N(CCP(=O)(c1ccccc1)c1ccccc1)Cc1ccco1	-30.9	0.1	-3.4%	10.0	6.3
CC(C)c1nnc(SCC(=O)NC2CCCC2)n1C	.	-2.0	.	.	3.9
CC(NC(=O)[C@@H](C)NC(=O)[C@@H]1Cc2ccccc2CN1C(=O)OC(C)(C)C)c1ccccc1 (stereo partly drawn)	.	0.5	.	.	-10.9
O=C(O)C(NS(=O)(=O)c1ccc(F)cc1)c1ccccc1 (stereo not drawn)	.	1.5	-3.1%	2.6	-1.6
COc1ccc(C(=O)NCCNC(=O)c2cc(OCC(F)(F)F)ccc2OCC(F)(F)F)cc1	-65.8	2.2	-11.9%	5.8	7.8
COc1ccccc1CC(=O)N1CCN(c2cccc(Cl)c2)CC1	.	5.3	.	.	-1.5
CSC1=NC(C)N2C(SC)=NC(C)N12 (stereo not drawn)	.	1.3	-11.2%	.	0.1
CC(=O)Nc1cc(C(=O)N2CCOCC2)ccc1S(=O)(=O)c1ccc(C)cc1	-38.3	-1.3	0.4%	11.4	-5.3
COc1cc(C(=O)Nc2ccc(-n3cnnn3)c(C)c2)cc(OC)c1OC	-25.8	0.4	-2.5%	-7.9	1.6
